Assay outcomes from PubChem.
H5N1 antiviral = antiviral screen in MDCK cells, H5N1 avian flu | cytopathic effect, luminescence, 72 h; active compounds read high; no value below 0 was filed and about half of the inactive calls have no number; reference of the scale not given here | inhibition, % at 50 µM | 96,000 tested, 0.07% active | AID 740; in the data active means inhibition above about 25%
An asterisk follows results filed as active; i = inactive. A portion of the library. The share of hits here may be higher or lower than overall.

SMILES	H5N1 antiviral
Cc1cccc(OC(C)C(=O)N(Cc2cccs2)C2CCS(=O)(=O)C2)c1C (configuration not stated)	0.1
CCCCc1nnc(NC(=O)CCSc2ccccc2)s1	0.2
COc1ccccc1N1CCN(C(=O)CCCn2c(=O)[nH]c3ccsc3c2=O)CC1	1.3
CCOC(=O)N1CCC(N(CCOC)C(=O)Nc2ccc(C)c(C)c2)CC1	0.3
COc1ccc(S(=O)(=O)N(CC(=O)N2CCOCC2)c2cc(Cl)ccc2OC)cc1OC	0.1
O=C(C/C=N/OCc1c(Cl)cccc1Cl)c1cnc(-c2ccccc2)s1	i
Nc1nc(-c2ccc3c(c2)CCCC3)cs1	i
O=C(NC1CCCCC1)c1cccnc1C(=O)O	i
N#C/C(=C/c1cc(Br)cs1)C(=O)NCC1CCCO1 (configuration not stated)	i
CCc1nnc(NC(=O)CSc2nnc(-c3ccco3)n2CC)s1	2.0
CC(C)C(=O)N1C2CCC1CC(O)(c1ccc(F)cc1)C2 (configuration not stated)	0.6
CC1(C)Cc2nc(NCCN3CCOCC3)c(C#N)cc2CO1	0.6
O=C(CSc1nnc(-c2ccco2)n1Cc1ccco1)N1CCOCC1	i
COc1cccc(-n2cnc3scc(-c4cccs4)c3c2=O)c1	i
CCCS(=O)(=O)N1CCC(C(=O)NC2CCCCC2C)CC1 (configuration not stated)	i
CC(C)Cc1nnc(NC(=O)CSc2nc(N)cc(=O)[nH]2)s1	i
CCNc1nc(Oc2c(Cl)cccc2Cl)cc(C(F)(F)F)n1	i
CCOC(=O)C1=C(C)NC(=O)NC1c1ccsc1 (configuration not stated)	0.8
CN1CCN(CCC(=O)Nc2cccc(F)c2)CC1	i
COc1ccc(O)c(/C=N/c2sc(C)c(C)c2C#N)c1	0.3
CCn1c(SCC(=O)N2CCN(c3ccccc3F)CC2)nnc1-c1ccoc1C	i
Cc1cccc(-c2cc3nc(C)cc(NCCCn4ccnc4)n3n2)c1	i
O=C(O)c1cccc(C(=O)O)n1	1.0
COc1ccc(N2C(=O)CSC2c2ccc3c(c2)OCO3)cc1 (configuration not stated)	0.4
O=C(CCNS(=O)(=O)c1cccc2nsnc12)NC1CCCc2ccccc21 (configuration not stated)	i
CCOC(=O)c1cc(C(O)(C(=O)OC)C(F)(F)F)c(/N=C/N(C)C)o1 (configuration not stated)	1.4
COc1ccc(-c2ccc(-c3noc(-c4ccccc4F)n3)c(OC)n2)cc1	i
Cc1ccc2c(c1)C(O)(CC(=O)c1ccc3c(c1)OCO3)C(=O)N2 (configuration not stated)	0.2
COC(=O)c1cc(-c2ccc(Br)cc2)n[nH]1	i
O=C(c1ccc(CS(=O)(=O)c2ccc(Br)cc2)o1)N1CCCC1	2.2
CC1(C)CC(=O)C2=C(C1)Nc1ccccc1N1C(=O)c3ccccc3C21 (configuration not stated)	0.2
CC(C)(C)c1cc(C(=O)N2CCN(c3ncccn3)CC2)ccn1	0.0
Cn1c(-c2ccco2)nc2cc3ccccc3cc21	i
Cc1ccc(NC(=O)Cn2nc(C)cc2C)cc1	0.2
COC(=O)C(CCSC)NC(=O)CNS(=O)(=O)c1ccc(F)cc1 (configuration not stated)	i
O=C(CCc1nc(-c2cccs2)no1)NCc1ccc(F)cc1Cl	3.0
COc1ccccc1C(O)(C(=O)NN(C(=O)c1ccccc1)c1ccccc1C)c1cccs1 (configuration not stated)	i
CCOC(=O)Nc1ccc(C)cc1Br	3.5
CC1=CS/C(=C(/C#N)C(=O)N2CCOCC2)N1c1ccccc1	0.5
Cc1ccc(C)c(NS(=O)(=O)c2ccc(OCC(=O)N3CCCC3)cc2)c1	i
N#CC1(Nc2ccccc2)C(=O)Nc2ccccc21 (configuration not stated)	i
CCOC(=O)N1CCN(Cc2c(F)cccc2Cl)CC1	i
COc1ccc(Cn2c(-c3ccco3)nc3oc4cc(OC)ccc4c(=O)c3c2=O)cc1	i
Cc1cc(C)nc(NC(=O)Cc2cccs2)n1	0.8
COc1ccc([N+](=O)[O-])cc1N(CC(O)CN(CC(C)C)CC(C)C)S(=O)(=O)c1ccccc1 (configuration not stated)	i

Six entries picked at random from the list so far, as already listed:
SMILES	H5N1 antiviral
O=C(c1ccc(CS(=O)(=O)c2ccc(Br)cc2)o1)N1CCCC1	2.2
CCCCc1nnc(NC(=O)CCSc2ccccc2)s1	0.2
CCOC(=O)N1CCC(N(CCOC)C(=O)Nc2ccc(C)c(C)c2)CC1	0.3
CC(C)C(=O)N1C2CCC1CC(O)(c1ccc(F)cc1)C2 (configuration not stated)	0.6
O=C(NC1CCCCC1)c1cccnc1C(=O)O	i
CCOC(=O)N1CCN(Cc2c(F)cccc2Cl)CC1	i

New compounds follow.
SMILES	H5N1 antiviral
C=CCNc1oc(-c2ccc(OC)cc2)nc1C#N	1.0
CCCn1c(SCC(=O)Nc2ccccc2Oc2ccccc2)n[nH]c1=O	i
CCOC(=O)Cc1csc(NC(=O)CSc2nnc(C(C)C)n2CC)n1	i
COc1cc2[nH]c(=O)n(CCC(=O)N3CCN(c4cc(Cl)ccc4C)CC3)c(=O)c2cc1OC	i
CN(C)c1ccc(/C=C(\C#N)C(=O)Nc2nc3c(s2)CCN(Cc2ccccc2)C3)cc1	0.3
C=CCOC(=O)C1=C(C)NC(=S)NC1/C=C/c1ccccc1 (configuration not stated)	i
CC(NCc1ccccc1Cl)C(O)c1ccccc1 (configuration not stated)	i
Cc1ccc(N2C(=O)CSC2c2ccc3c(c2)OCO3)cc1 (configuration not stated)	i
O=C(CNC(=O)c1ccco1)OCC(=O)c1cccc2ccccc12	1.2
CCCCN1C(=O)/C(=C\c2ccco2)C(=O)N(CCc2ccccc2)C1=O	0.1
CCN(CC)C(=O)c1ccc(NC(=O)c2cccc(F)c2)cc1	i
CCOC(=O)c1cc(-c2ccccc2)sc1NC(=S)Nc1cccc(C)n1	i
O=C(CC(c1ccco1)C1CCCCC1=O)c1ccccc1 (configuration not stated)	i
CC1CN(Cc2nc3c(c(=O)n(C)c(=O)n3C)n2CCN2CCOCC2)CC(C)O1 (configuration not stated)	1.0
Cc1ccc(-c2nc3ncccn3c2Nc2ccc3c(c2)OCCO3)o1	1.0
O=C1c2cccnc2C(=O)N1C1CCCCC1	0.6
Cc1cccc(C)c1NC1=NC(=S)N(c2ccc(N(C)C)cc2)C1(C)C	i
Cc1sc2nc3n(c(=O)c2c1C)CCCS3	2.0
Cc1ccc(S(=O)(=O)N2CCC(C(=O)N[C@H](C(=O)NC3CCS(=O)(=O)C3)C(C)C)CC2)cc1 (some centres not stated)	1.3
COc1ccc(S(=O)(=O)N(C)CC(=O)N2CCC(C(N)=O)CC2)cc1Cl	0.1
C/C(=N\NC(=O)c1ccccc1C)c1ccc(NC(=O)c2cccs2)cc1	5.4
Cn1ncc(Cl)c(Oc2ccccc2)c1=O	0.2
O=C(CCN1CCc2ccccc2C1)Nc1ccc2c(c1)OCO2	i
CS(=O)(=O)N1CCN(C(=O)C2c3ccccc3Oc3ccccc32)CC1	1.1
CC1=C(C(=O)OC(C)C)C(c2ccccn2)n2ncnc2N1 (configuration not stated)	0.9
CCOC(=O)c1ccc(NC(=S)N2CCN(S(C)(=O)=O)CC2)cc1	0.9
Cc1ccc(S(=O)(=O)Cn2nnnc2C(c2ccccc2)N2CCN(c3ncccn3)CC2)cc1 (configuration not stated)	4.6
CCCC(=O)NC(Nc1ccccc1OC)C(Cl)(Cl)Cl (configuration not stated)	0.9
COc1ccc(C(=O)Nc2ncc3c(n2)-c2ccccc2CC3)cc1	1.2
CC(C)NC(=O)c1ccc(CS(=O)(=O)c2ccc(Br)cc2)o1	2.4
O=C1CC(c2cccc(Cl)c2)c2cc3c(cc2N1)CCC3 (configuration not stated)	2.1
O=C(NCCC1=CCCCC1)C1CCCN(S(=O)(=O)c2ccc(F)cc2)C1 (configuration not stated)	0.0
CC1CCN(S(=O)(=O)c2ccc(C(=O)OCc3ccc4c(c3)OCO4)cc2)CC1	1.5
CC(=O)n1nc2nc(C)cc(C)c2c1N	i
COc1ccccc1OCC(=O)NCc1cccs1	i
CC(C)C(NC(=O)C1CCCCC1)C(=O)NC1=NCCS1 (configuration not stated)	0.1
COCCN(C(=O)C1CC1)c1nnc(-c2cccc(C)c2)s1	i
CCOc1ccc(NC(=O)c2cccnc2C(=O)O)cc1	1.1
Cc1ccc(C(c2nnnn2CCc2ccccc2)N2CCSCC2)cc1 (configuration not stated)	0.7
C=CCn1c(COC)nnc1SCC(=O)c1ccc(F)cc1	1.3
Cc1ccc(Oc2ncccc2/C=N/OCc2ccc(Cl)cc2Cl)cc1	i
O=C(CCc1ccccc1)NNC(=O)C1CCCCC1	0.1
CC(C)Oc1ccc(-c2cc(=O)[nH]c(=O)[nH]2)cc1	i
COC(=O)c1cc(-c2ccccc2)sc1N	i
CCOC(=O)Cc1csc(SCC(=O)Nc2cccc(C#N)c2)n1	i
O=C1c2ccccc2C(=O)N1CCCn1c(=O)oc2ccccc21	0.1
CCC(C)[C@@H](C(=O)NCC1CCC(C(=O)O)CC1)n1nnc2ccccc2c1=O (some centres not stated)	0.4
Cc1cc(SCCOc2ccccc2)nc(N)n1	i
CCS(=O)(=O)c1ccc2c(c1)N(S(C)(=O)=O)CC(C(=O)NCc1ccccc1OC)O2 (configuration not stated)	0.5
CN(C)Cc1cc(CCNC(=O)c2ccc(Cl)cc2)ccc1O	i
O=C(CN1C(=O)COc2ccccc21)N(Cc1cccnc1)Cc1ccccc1F	0.8
CC1CCCC(NC2CCCCNC2=O)C1 (configuration not stated)	i
COc1cccc(/C=N/n2c(N)nc3ccccc32)c1OC	i
Cc1cc(=O)n2nc(N3CCC(C(=O)NC(C)c4ccccc4)CC3)sc2n1 (configuration not stated)	0.2
CSc1ccc(-c2nc(CSCC(=O)NCCCN3CCOCC3)c(C)o2)cc1	i
CCOC(=O)CSc1n[nH]c(NC(=O)c2ccccc2)n1	0.5
CC(C)CCC(C)N=Cc1c(O)n(Cc2ccccc2)c(=O)c2ccccc12 (configuration not stated)	i
Cc1nc(N2CCC3(CC2)OCCO3)c2nnn(Cc3ccccc3F)c2n1	i
COc1cc(C2=NOC(C(=O)NCc3ccc(F)cc3)C2)cc(OC)c1OC (configuration not stated)	i
COc1ccc(-c2nnc(SCC(=O)Nc3ccccc3)n2C)cc1	i

(further entries)
SMILES	H5N1 antiviral
Cc1ccc(CNC(=O)C2CCC(=O)N2C2CCCCC2)cc1 (configuration not stated)	i
Cn1c(C(=O)N2CCN(Cc3ccc4c(c3)OCO4)CC2)cc2sccc21	1.1
Cc1ccc(C(=O)O/N=C2\CCS(=O)(=O)c3sccc32)cc1	i
CCCC(=O)NC(c1ccc(OC)c(OC)c1)c1c(O)ccc2ccccc12 (configuration not stated)	0.9
COc1ccc2nc(NS(=O)(=O)c3ccc(NC(C)=O)cc3)sc2c1	i
CCOCC(=O)Nc1cc(C(F)(F)F)ccc1Oc1cccc(Br)c1	0.3
CC1(N2CCOCC2)CC2(O)C(=[N+]1[O-])CCc1c2no[n+]1[O-] (configuration not stated)	0.6
O=C(c1ccccc1)N1CCN(c2ncnc3sc4c(c23)CCC4)CC1	1.8
CCOCc1cn(CC(=O)c2ccc([N+](=O)[O-])cc2)c(C)nc1=N	1.3
COc1ccccc1-c1cc(C(=O)N2CCc3ccccc3C2)c2ccccc2n1	0.1
CN(C)c1ccc(C(=O)OCC(=O)NC2CCCCC2)cc1	0.2
O=S(=O)(c1ccc(-n2cnnn2)cc1)N(C1CCCCC1)C1CCCCC1	i
NC(=O)c1ccsc1NC(=O)CSc1nnc(C2CC2)n1Cc1ccccc1	0.1
CCCOc1ccc(C(=O)N/N=C/c2ccc(-c3ccc(S(=O)(=O)Nc4ncccn4)cc3)o2)cc1	2.5
COc1cc(CNc2ccc(N3CCOCC3)c(C(=O)O)c2)ccc1OCC(N)=O	0.2

Grouped by structure, those above containing a CF3 group
SMILES	H5N1 antiviral
CCNc1nc(Oc2c(Cl)cccc2Cl)cc(C(F)(F)F)n1	i
CCOC(=O)c1cc(C(O)(C(=O)OC)C(F)(F)F)c(/N=C/N(C)C)o1 (configuration not stated)	1.4
CCOCC(=O)Nc1cc(C(F)(F)F)ccc1Oc1cccc(Br)c1	0.3

Going on with the list:
SMILES	H5N1 antiviral
CCOC(=O)C1CCN(C(=O)CSc2n[nH]c(=O)[nH]c2=O)CC1	i
On1onc2c3cc(-c4ccccc4)nc3ccc21	i
COc1cc(N=c2ssnc2Cl)cc(OC)c1	1.1
CC(C)c1ccc(NC(=O)C2CC(=O)N(C(C)C)C2)cc1 (configuration not stated)	1.0
O=C(Cn1cc2c(n1)CCCC2)NCc1cccs1	i
O=C(NC1CCc2ccccc21)C1CCN(S(=O)(=O)c2ccc(-n3cnnn3)cc2)CC1 (configuration not stated)	i
O=C(Cc1ccccc1)NC(NCCCN1CCOCC1)(C(F)(F)F)C(F)(F)F	0.7
CCCC(=O)Nc1ccc(OCC(=O)OC)cc1	0.2
O=c1c2cnn(-c3ccc(F)cc3)c2ncn1Cc1cccnc1	i
O=C(NC1(C(F)(F)F)NC(=O)N(c2ccc(F)c(Cl)c2)C1=O)c1ccncc1 (configuration not stated)	i
COc1ccc(S(=O)(=O)NCCC(=O)NC(C)c2ccccc2)cc1 (configuration not stated)	0.6
O=C(Nc1ccc(N2CCN(c3ccc(O)cc3)CC2)cc1)Oc1ccccc1	i
CCCCn1nc2cc(C(=O)NCCc3cccs3)ccc2c1OCC	0.2
Cc1nc(NC(=O)c2ccc(F)cc2)nc2cc3c(cc12)OCO3	1.0
N#Cc1c(-c2ccccc2)nc(-c2ccccc2)nc1N1CCOCC1	i
Cc1noc(C)c1S(=O)(=O)N(CC(=O)NCc1ccc(Cl)cc1)c1ccc2c(c1)OCO2	0.1

4 entries from above, as labelled records:
> COc1ccc(S(=O)(=O)NCCC(=O)NC(C)c2ccccc2)cc1 (configuration not stated)
- H5N1 antiviral: 0.6
> O=C(Nc1ccc(N2CCN(c3ccc(O)cc3)CC2)cc1)Oc1ccccc1
- H5N1 antiviral: i
> CCCCn1nc2cc(C(=O)NCCc3cccs3)ccc2c1OCC
- H5N1 antiviral: 0.2
> Cc1nc(NC(=O)c2ccc(F)cc2)nc2cc3c(cc12)OCO3
- H5N1 antiviral: 1.0
